Screening data deposited in PubChem by National Center for Advancing Translational Sciences (NCATS).
VDR inh: blocks the human vitamin D receptor | AID 504847 | Potency, µM, for inactives: max response, negative = inhibition, usual class: inhibitors | P11473 | 0.93% of 400,000 active | VDR-SRC2-3 peptide fluorescence polarization, 2 h; active means well fitted inhibition curve with a large enough effect; inconclusive means small, poorly fitted or top-dose-only effect, or another doubt; inactive means no such curve, though single readings can be large or run the other way; further: series mostly up to about 120 µM
Target sequence (P11473 whole entry, looked up): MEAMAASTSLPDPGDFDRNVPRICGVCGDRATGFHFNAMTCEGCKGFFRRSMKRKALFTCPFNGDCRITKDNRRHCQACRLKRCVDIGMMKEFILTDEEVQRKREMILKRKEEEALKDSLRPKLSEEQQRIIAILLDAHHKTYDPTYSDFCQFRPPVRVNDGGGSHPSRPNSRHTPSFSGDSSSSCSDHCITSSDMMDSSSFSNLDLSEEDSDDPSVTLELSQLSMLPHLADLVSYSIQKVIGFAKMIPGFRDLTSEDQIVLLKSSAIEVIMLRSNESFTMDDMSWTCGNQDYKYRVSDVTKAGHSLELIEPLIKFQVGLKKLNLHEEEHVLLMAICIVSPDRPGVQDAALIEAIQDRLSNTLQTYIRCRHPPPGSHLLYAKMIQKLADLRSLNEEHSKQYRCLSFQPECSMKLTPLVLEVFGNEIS
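Fluorescence polarization assay measuring small-molecule disruption of VDR binding to the coregulator peptide SRC2-3. Compounds were pin-transferred (23 nl) into the reagent mix and incubated 2 h at room temperature before reading.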
* = called active by the depositor; u = inconclusive; & = joins results of further samples. On the % scale 0 is the no-effect control and ±100 the full control effect; potency means the concentration at half of the fitted maximal effect. A portion of the library; count on the stated rates, not on these rows.

nr | Molecule | VDR inh
1 | COc1ccc(CCN2C(=O)C3C4CC(C5C(C(N)=O)=NOC45)C3C2=O)cc1OC (centres undefined) | 7%
2 | COc1ccc(-c2cc(C)no2)cc1S(=O)(=O)NCc1cccs1 | 16%
3 | C=C(C)C(=O)Nc1nnc(-c2cccs2)s1 | -8%
4 | O=C(O)C1SCCN1S(=O)(=O)c1ccc2ccccc2c1 (centres undefined) | -7%
5 | Nc1nc2nc[nH]c2c(=O)[nH]1 | -14%
6 | COc1ccc(OCC(=O)N/N=C/c2ccncc2)cc1 | 14%
7 | Nc1cc(C(=O)OCC(=O)NCc2ccco2)ccc1Cl | -10%
8 | COCc1cc(Sc2ccc(Br)cc2)nc(-c2ccccc2)n1 | -13%
9 | COCCCNC(=O)CSc1nc(-c2cccc(F)c2)[nH]c1-c1ccccc1 | 8%
10 | CCCCNc1nc2c(c(=O)n(Cc3ccc(Cl)cc3)c(=O)n2C)n1C | 0%
11 | Cn1c(=O)n(C)c2cc([N+](=O)[O-])c(N3CCN(CCO)CC3)cc21 | -22%
12 | COc1ccc(OC)c2sc(N3CCN(C(=O)c4ccc5c(c4)CCCC5)CC3)nc12 | 10%
13 | Cc1cccc(NC(=S)NC2CCCCCC2)c1C | -8%
14 | CCCOc1ccc(N2CC(C(=O)Nc3ccccc3C(=O)NCc3ccco3)CC2=O)cc1 (centres undefined) | -10%
15 | CC1=C(C(=O)NC2CC(C)(C)Cc3c2cnn3-c2ccc(C)cc2)OCCO1 (centres undefined) | -7%
16 | CCOC(=O)C1CCCN(S(=O)(=O)c2ccc(Br)c(OC)c2)C1 (centres undefined) | 0%
17 | CCCCCCNC1=NCCS1 | -2%
18 | COc1ccc(NC(=O)CSc2nc(C3CC3)nc3ccccc23)cc1 | 11%
19 | Cc1ccc(S(=O)(=O)NC(CN2CCOCC2)=NCCNS(=O)(=O)c2ccccc2)cc1 | 9%
20 | CCOCCCn1c(C)nc2c(c1=O)c1nc3ccccc3nc1n2-c1ccc2c(c1)OCCO2 | -5%
21 | CCO[C@H]1OC(C(=O)NCc2nc3ccccc3[nH]2)=C[C@@H](c2cn(C(C)=O)c3ccccc23)[C@@H]1CCCO | -12%
22 | Cc1ccc(S(=O)(=O)N2CCOCC2)cc1NC(=O)Cn1nc(C)c([N+](=O)[O-])c1C | -6%
23 | CS(=O)(=O)NCCCc1ccccc1 | 0%
24 | Cc1ccc(CS(=O)(=O)Cc2ccc(C(=O)NC3CCCC3)o2)cc1 | 7%
25 | Cc1ccc(C(C)C)c(OCCCN2CCc3ccccc3C2)c1 | -4%
26 | COC(=O)c1ccc2c(=O)n(CCCCCC(=O)O)c(=S)[nH]c2c1 | 0%
27 | CC(C)CN1C=C2C(=O)C(C)(OC(=O)C3CCCC3)C(=O)C=C2C=C1c1ccsc1 (centres undefined) | 3%
28 | COCCN1C=C2C(=O)C(C)(OC(=O)CCC(=O)OC)C(=O)C(Br)=C2C=C1c1ccc(OC)cc1 (centres undefined) | 22µM*
29 | O=C(COC(=O)C1=COCCO1)Nc1ccccc1 | 0%
30 | Cc1c(CCOC(=O)CC23CC4CC(CC(C)(C4)C2)C3)sc[n+]1CC(=O)c1ccccc1 | 0%
31 | O=C(Nc1nc2ccccc2s1)c1ccc(N2CCCCC2)c([N+](=O)[O-])c1 | -8%
32 | Cc1[nH]c2ccccc2c1C(=O)COC(=O)Cn1c(C(F)(F)F)nc2ccccc21 | -2%
33 | Cc1nc2c(=O)[nH]c(=S)[nH]c2[nH]c1=O | -10%
34 | O=C(CCC1N=C2c3ccccc3N=C(SCc3ccc(F)cc3)N2C1=O)NCc1cccs1 (centres undefined) | 14%
35 | CN(CC(=O)Nc1ccccc1C(F)(F)F)C(=O)CCc1nc2ccccc2c(=O)[nH]1 | -15%
36 | O=C(CN1C(=O)NC(c2ccccc2)(c2ccccc2)C1=O)NCCc1ccc(F)cc1 | -9%
37 | COc1ccc(N/C=C/C(=O)c2ccc(OC)c(OC)c2)cc1 | -14%
38 | CCOC(=O)CCNC(=O)Nc1cc2nc(C)n(Cc3cccc(Cl)c3)c2nc1C | -25%
39 | Cn1ccnc1SCC(=O)c1ccc(OC(F)F)cc1 | 0%
40 | Cc1ccc(-c2csc(/C=C3/SC(C)C(=O)N3CC(=O)Nc3ccccc3F)n2)cc1 (centres undefined) | 7%
41 | COc1ccc(NS(=O)(=O)c2ccc3c(c2)oc(=O)n3C)c(OC)c1 | u
42 | COc1cc2c(cc1OC)C(c1cc3ccc(C)cc3[nH]c1=O)N(C(=O)c1ccco1)CC2 (centres undefined) | -3%
43 | COC(=O)c1cc(C)sc1NC(=O)CCc1ccccc1 | 8%
44 | CCOC(=O)C(Cc1ccc(OC)c([N+](=O)[O-])c1)NC(=O)CCC(=O)Nc1ccc(OC)cc1 (centres undefined) | -2%
45 | Cc1c(C(=O)NCc2ccco2)sc2nc(-c3ccccc3)cn12 | -13%

Ordered by count of non-hydrogen atoms (largest number first): some entries from above
nr | Molecule | VDR inh
34 | O=C(CCC1N=C2c3ccccc3N=C(SCc3ccc(F)cc3)N2C1=O)NCc1cccs1 (centres undefined) | 14%
42 | COc1cc2c(cc1OC)C(c1cc3ccc(C)cc3[nH]c1=O)N(C(=O)c1ccco1)CC2 (centres undefined) | -3%
37 | COc1ccc(N/C=C/C(=O)c2ccc(OC)c(OC)c2)cc1 | -14%

Next part
nr | Molecule | VDR inh
46 | CCN(CC)C(=O)C1CCN(S(=O)(=O)c2ccc3c(c2)CCCN3C(C)=O)CC1 | 6%
47 | O=C(O)C1Nc2c(O)cccc2C2C=CCC12 (centres undefined) | 14%
48 | Cc1cc(C(F)(F)F)n(-c2nc(C(=O)NNS(=O)(=O)c3ccccc3)cs2)n1 | -1%
49 | CCN(CCn1cccn1)C(=O)CCc1nnc(C2(c3ccc(Cl)cc3)CCC2)o1 | -18%
50 | CCc1cccc(C)c1NC(=O)c1ccc2c(c1)CCN2S(C)(=O)=O | 16%
51 | CC(C)[C@H](NC(=O)c1ccco1)C(=O)OCC(=O)c1ccc2c(c1)NC(=O)CO2 | -10%
52 | CCc1ccc(OCC(=O)N(C)C2CCS(=O)(=O)C2)cc1 (centres undefined) | -6%
53 | COc1ccc(CCNC(=O)CO/N=C/c2cc3c(cc2Br)OCO3)cc1OC | -9%
54 | Cc1ccc(CS(=O)(=O)CCC(=O)NCCC2=CCCCC2)cc1 | -20%
55 | CCCCCOc1cccc(C2C(C(=O)c3cccs3)=C(O)C(=O)N2CCN2CCOCC2)c1 (centres undefined) | 0%
56 | O=C(NNC(=O)C1CCN(S(=O)(=O)c2cccc(C(F)(F)F)c2)CC1)C1CC1 | 0%
57 | O=C(Cc1cccs1)Nc1ccc2c(c1)C(=O)OC2 | 28%
58 | Cn1c(=O)c2c(nc(Sc3ncccn3)n2Cc2ccccc2Cl)n(C)c1=O | 2%
59 | COc1cccc(C(CC(=O)NCC2CCCO2)NS(=O)(=O)c2ccc(C)cc2)c1OC (centres undefined) | 4%
60 | COc1ccc(CCNS(=O)(=O)c2ccc(Br)s2)cc1 | 0%

Among those listed so far, three have a COOH group.
nr | Molecule | VDR inh
4 | O=C(O)C1SCCN1S(=O)(=O)c1ccc2ccccc2c1 (centres undefined) | -7%
26 | COC(=O)c1ccc2c(=O)n(CCCCCC(=O)O)c(=S)[nH]c2c1 | 0%
47 | O=C(O)C1Nc2c(O)cccc2C2C=CCC12 (centres undefined) | 14%

Remaining list, next part
nr | Molecule | VDR inh
61 | COc1ccc(C(=O)/C=C/c2ccc(OC)c(Cn3nnc4ccccc43)c2)cc1 | -15%
62 | Cc1ccc(-c2cc(=O)c3cc(F)ccc3[nH]2)cc1 | -3%
63 | CCOC(=O)c1c(-c2ccccc2)c(C(C)=O)c(=O)n(C)c1C | -3%
64 | CCn1nnnc1-c1ccc(OC)c(S(=O)(=O)N2CCCCC2)c1 | -2%
65 | Cc1ccc(-c2csc(NC(=O)CSc3nc4ccccc4[nH]3)n2)cc1 | 4%
66 | O=C(O)Cn1c(Cc2ccccc2)nc2ccccc21 | 3%
67 | O=C(O)CCCNS(=O)(=O)/C=C/c1ccccc1 | 9%
68 | COc1ccc2[nH]c3c(c2c1)CCN1C(=O)C(CC(=O)NCCCN(C)C)C[C@H](C(=O)N2CCOCC2)[C@@]31CCC1CCCC1 (some centres undefined) | 6%
69 | NCCOc1ccc(C2CCCCC2)cc1 | -22%
70 | COc1cc(NC(=O)CCc2c(C)nn(-c3ccc(N4CCCCC4)nn3)c2C)cc(OC)c1OC | 7%
71 | CC1CCCCC1NC(=O)CN1C(=O)c2cccc(N)c2C1=O (centres undefined) | -3%
72 | CCN(CC)CCOC(=O)c1ccc(Cl)cc1Cl | 5%
73 | Cc1cc(C(=O)O)c(C)n1-c1ccccc1 | -12%
74 | CCOc1cc(C(=S)N2CCOCC2)ccc1OS(=O)(=O)c1ccc(NC(C)=O)cc1 | 9%
75 | O=C(CNC1CCCCC1)N1CCc2ccccc2C1 | -4%
76 | Cc1ccc(-c2nc3cc(C(C)C)ccc3o2)cc1NC(=O)c1cc([N+](=O)[O-])ccc1N1CCOCC1 | -15%
77 | Cc1cc(C)c(NC(=O)CSc2cccc[n+]2[O-])c(C)c1 | 11%
78 | O=C(Nc1cccc2cccnc12)c1cccc([N+](=O)[O-])c1 | -17%
79 | O=C(CSc1nnc(-c2cccnc2)o1)Nc1cccc(Cl)c1 | -2%
80 | O=C(N[C@@H](Cc1c[nH]c2ccccc12)C(=O)O)C1CCN(S(=O)(=O)c2cccs2)CC1 | 1%
81 | Cc1ccc(CN2C(=O)c3ccccc3CC2(C)C(=O)NC2CCCCC2)cc1 (centres undefined) | 1%
82 | CN(C)c1ccc(S(=O)(=O)NCC(=O)OCC(=O)Nc2cc(Cl)cc(Cl)c2)cc1[N+](=O)[O-] | u
83 | CCN(CC)C(=O)CN(C#N)c1nc(OC)nc(N(C)C)n1 | -4%
84 | O=C(CC(=O)c1ccccc1)Nc1ccccc1C(F)(F)F | -10%
85 | Cc1ccc(-c2cc(C(=O)NCC3CCCO3)no2)cc1 (centres undefined) | 9%
86 | COc1ccccc1C(=O)NCCc1c(C)[nH]c2c(C)ccc(F)c12 | -25%
87 | O=C(C#Cc1ccccc1)Nc1ccc(F)cc1 | 8%
88 | CC(=O)N1N=C(c2ccccc2)OC12CCCC2 | -14%
89 | O=C(CN1CCOCC1)N/N=C/c1ccco1 | -5%
90 | CCC(=O)Nc1ccc(C)cc1-c1nc2ccccc2n(C(C)C(=O)Nc2ccccc2CC)c1=O (centres undefined) | 9%
91 | O=C1c2ccccc2C(=O)N1Cc1nc2ccccc2c(=O)n1CCN1CCOCC1 | 3%
92 | O=C(/C=C(\c1ccccc1)n1cncn1)c1ccccc1 | -8%
93 | O=C(CN1CCN(CC(=O)Nc2ccccc2Cl)CC1)Nc1ccc(F)c(F)c1 | -1%
94 | COCCNC(=O)/C(C#N)=C/c1ccc(O)c([N+](=O)[O-])c1 | -10%
95 | CCOc1ccccc1NC(=O)CSc1ccc(-c2ccco2)nn1 | -15%
96 | Cn1c(=O)cc(SCC(=O)N2CCN(c3ccccc3F)CC2)c2cc(Cl)ccc21 | -29%
97 | Cc1cc(C)nc(SC2=CS(=O)(=O)c3ccccc32)n1 | -1%
98 | COC(=O)C1=C(C)NC2=C(C(=O)CCC2)C1c1coc2ccccc2c1=O (centres undefined) | -6%
99 | CCOc1ccc2nc(/N=C/c3c(C)[nH]n(-c4ccc(C)cc4)c3=O)sc2c1 | -12%
100 | O=C(Nc1ccc(N2CCCC2)c(Cl)c1)c1cccnc1 | 4%
101 | CCN(C(=O)CSc1nc2ccccc2n1CC(=O)Nc1cccc(C#N)c1)c1ccccc1 | 0%
102 | CCN1CCc2c(OCc3ccc(C)cc3)cccc2C1=O | 4%
103 | COc1ccc(N2CCN(CC(=O)Nc3nc(C)cs3)CC2)cc1 | -7%
104 | COc1ccc(OCCNC(=O)C(c2ccccc2)c2ccccc2)cc1 | 11%
105 | COc1ccc(CNC2CCCc3ccccc32)cc1OC (centres undefined) | 0%
106 | CCCCN(C(=O)c1ccc(COc2ccccc2)o1)c1c(N)n(CC(C)C)c(=O)[nH]c1=O | -3%
107 | Cc1ccc2c(c1)cc(C(=O)NCc1ccc(F)cc1)n2C | 19%
108 | COc1ccc(C)cc1-n1nnnc1SCC(=O)NC(=O)NCc1ccco1 | 13%
109 | COc1ccc(CNC(=O)c2cnn(-c3ccc(F)cc3)c2-n2cccc2)cc1 | 6%
110 | CCCOP(=O)(OCCC)C(NC(=O)C(C)(C)C)c1ccccc1 (centres undefined) | 4%
111 | COc1ccc(N2CCN(C(=O)CCN3C(=O)C4C5C=CC(C5)C4C3=O)CC2)cc1 (centres undefined) | -6%
112 | CCC(=O)Nc1c(-c2ccc(C)cc2)c(=O)c2ccccc2n1C | 9%
113 | CCOC(=O)c1c(C)[nH]c(CCC(=O)Nc2c(C)cccc2CC)c1C | 1%
114 | CCc1ccccc1NC(=O)CSc1nc(-c2ccccc2OC)nc2c1Cc1c(CO)cnc(C)c1O2 | 12%
115 | O=S(=O)(c1ccccc1)c1nc(-c2ccccc2Cl)oc1NCCCN1CCOCC1 | -18%
116 | COCCNC(=O)C(OC(=O)c1nsc(Cl)c1Cl)C(C)C (centres undefined) | -16%
117 | CCCCCC(O)CCCC(=O)O (centres undefined) | -1%&1%&-1%&-2%
118 | O=C(N/N=C/c1coc2ccc(Cl)cc2c1=O)c1cc(O)cc(O)c1 | -6%
119 | COc1ccc(C(C)=O)cc1COC(=O)c1cc(C)oc1C | -2%
120 | CCOCCCNC(=O)CN1C(=O)COc2ccc(S(=O)(=O)N3CCOCC3)cc21 | -1%&5%

Other results.
nr | Molecule | VDR inh
121 | O=C(Nc1ccc2nc3n(c(=O)c2c1)CCCCC3)c1ccccc1Cl | -12%
122 | CC(=O)Nc1ccc(C(=O)OCC(=O)N2CCCC2=O)cc1 | -4%
123 | CC(=O)c1ccc(OCCCC(=O)Nc2ccc(C)c(S(=O)(=O)N3CCOCC3)c2)cc1 | -8%
124 | CC(=O)n1cc([C@@H]2C=C(C(=O)N3CCN(Cc4ccc5c(c4)OCO5)CC3)O[C@H](OCCCCO)C2)c2ccccc21 | 4%
125 | O=C(CSc1nc(-c2ccccc2)nc2c1CCCC2)N1CCOCC1 | 0%
